# Screens: PubChem, ICCB-Longwood Screening Facility, Harvard Medical School
# Anaer choline gr = growth inhibitors of anaerobic choline-fed gram-negatives, minimal medium, absorbance; AID 1963822, 2024; actives 0.2% (n = 55,000); Gram-negative bacterium anaerobic choline minimal medium; stronger effect = lower value; many inactives read as strong as hits in the columns shown; calls only;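 active = growth z-score on choline under -2 at 7 or 20 h with little or no fall on glycerol, limits in tiers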;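 also: stock transfer was 300 nL into about 50 µL; the organism is E. coli; final concentration not given here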
# Anaer choline gr early = further read-out of Anaer choline gr, marked with its call; z-score; measured here: choline growth z-score, timepoint 1;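 score of optical density at 7 h as mean of two plates; lower means less growth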
# * hit, by the source's call; i = inactive; + = active, no number; & = joins results of further samples.
SMILES,Anaer choline gr,Anaer choline gr early
CCN(CC)CCCCN1c2ccccc2Oc2ccc(Cl)cc21,+,-3*
Cc1[nH]c2ccccc2c1C1(O)C(=O)Nc2ccc(F)cc21 (stereo not given),i,-3.7
COc1ccc(N2C(=O)CCS2(=O)=O)cc1S(=O)(=O)Nc1ccc(OC(C)C)cc1,i,0.25
Cc1nn(-c2ccccc2)c(N2CCC(C(=O)NC3CCCCC3)CC2)c1NC(=O)C(C)C,i,-0.04
O=S(=O)(Nc1ccc(-c2ccc(N3CCOCC3)nn2)cc1)c1ccc(Br)cc1,i,-0.17
COc1ccc(OC)c(NC(=O)NCCc2nc3cccnc3n2-c2ccccc2)c1,i,-1.1
Cc1sc(-c2cc(C(F)(F)F)on2)cc1S(=O)(=O)NCc1ccc(N(C)C)cc1,i,0.15
CCCCCn1c(=O)[nH]c2cc(C(=O)NCCCN3CCC(C)CC3)ccc2c1=O,i,-0.86
Cn1c2ccccc2c2c(C(=O)N3CCN(c4ccccc4F)CC3)cn(C3CCCC3)c(=O)c21,i,1
Cc1ccc(-n2nc3c(=O)n(CC(=O)Nc4cccc(Cl)c4)nc(C)c3c2C)c(C)c1,i,0.37
COc1ccccc1N1CCN(c2c3c(nc4ncnn24)CCC3)CC1,i,0.54
Cc1cc(Cl)ccc1NS(=O)(=O)c1ccc2c(c1)c(=O)n(CC(=O)N1CCCC1)c(=O)n2C,i,0.23
COc1ccc(C(=O)N2CCN(CCc3ccccn3)CC2)cc1,i,0.6
O=C(CN1C(=O)CCc2cc(S(=O)(=O)N3CCCC3)ccc21)N1CCN(c2ncccn2)CC1,i,-1.1
CCc1nc(-c2cc(S(=O)(=O)N3CCC(C(=O)N(C)C4CCCCC4)CC3)c(C)s2)no1,i,1
Cc1[nH]c(C)c(S(=O)(=O)NC2CCCC2)c1-c1nnc(C2CC2)o1,i,-1.7
CS(=O)(=O)N1CCCc2cc(C(=O)N3CCc4ccccc4C3)ccc21,i,0.6
Cc1cc(C2CCCN2C(=O)c2cc(-c3ccc4c(c3)OCO4)on2)on1 (stereo not given),i,-0.54
O=S(=O)(c1cc(-c2noc(C3CC3)n2)cs1)N1CCN(c2ccc(Cl)cc2)CC1,i,2.1
NS(=O)(=O)c1ccc(CCn2c(SCc3c(F)cccc3F)nc3ccccc3c2=O)cc1,i,-0.13
Cc1ccc(N(Cc2nc3nc(C)cc(C)n3n2)S(C)(=O)=O)cc1,i,-0.83
CC(C)(C)NC(=O)c1ccc(-c2ccc(F)cc2)nc1,i,-0.59
CCc1cc2c(cc3n2CC(C)(C(=O)NC2CCC(C)CC2)N(CC2CCCO2)C3=O)s1 (stereo not given),i,1
CCc1c(C)nc2ncnn2c1Sc1ccc(NC(=O)C2CC(=O)N(c3ccc(C)cc3)C2)cc1 (stereo not given),i,-0.57
O=C(CSc1nc2ccccc2c(=O)n1CC1COc2ccccc2O1)N1CCN(c2ccccc2)CC1 (stereo not given),i,-0.38
Cc1ccc(-n2c(N3CCCC(C(=O)NCCCOC(C)C)C3)nc3ccsc3c2=O)cc1 (stereo not given),i,-0.88
COc1ccc(N2CCN(C(=O)c3cc(-c4ccncc4)n[nH]3)CC2)cc1,i,-1.7
COc1ccc(OC)c(-c2csc(-c3nnn(-c4ccc(C)c(C)c4)c3N)n2)c1,i,0.11
CCCCN(CCCC)CCCNC(=O)c1ccc2c(c1)sc1nc(-c3ccc(OC)cc3)cn12,i,1.2
O=C(Nc1ccccc1Br)N1Cc2cccn2-c2ccccc21,i,2.4

# Single records (already shown). Screens in order: Anaer choline gr, Anaer choline gr early
# CS(=O)(=O)N1CCCc2cc(C(=O)N3CCc4ccccc4C3)ccc21 is entered as i, 0.6
# Cc1[nH]c(C)c(S(=O)(=O)NC2CCCC2)c1-c1nnc(C2CC2)o1 is entered as i, -1.7

# 14 structures out of the list, ordered by SMILES length, high to low:
SMILES,Anaer choline gr,Anaer choline gr early
Cc1cc(Cl)ccc1NS(=O)(=O)c1ccc2c(c1)c(=O)n(CC(=O)N1CCCC1)c(=O)n2C,i,0.23
O=C(CN1C(=O)CCc2cc(S(=O)(=O)N3CCCC3)ccc21)N1CCN(c2ncccn2)CC1,i,-1.1
CCc1c(C)nc2ncnn2c1Sc1ccc(NC(=O)C2CC(=O)N(c3ccc(C)cc3)C2)cc1 (stereo not given),i,-0.57
O=C(CSc1nc2ccccc2c(=O)n1CC1COc2ccccc2O1)N1CCN(c2ccccc2)CC1 (stereo not given),i,-0.38
CCc1cc2c(cc3n2CC(C)(C(=O)NC2CCC(C)CC2)N(CC2CCCO2)C3=O)s1 (stereo not given),i,1
CCCCN(CCCC)CCCNC(=O)c1ccc2c(c1)sc1nc(-c3ccc(OC)cc3)cn12,i,1.2
Cc1ccc(-n2c(N3CCCC(C(=O)NCCCOC(C)C)C3)nc3ccsc3c2=O)cc1 (stereo not given),i,-0.88
COc1ccc(OC)c(-c2csc(-c3nnn(-c4ccc(C)c(C)c4)c3N)n2)c1,i,0.11
COc1ccc(N2CCN(C(=O)c3cc(-c4ccncc4)n[nH]3)CC2)cc1,i,-1.7
Cc1cc(C2CCCN2C(=O)c2cc(-c3ccc4c(c3)OCO4)on2)on1 (stereo not given),i,-0.54
CS(=O)(=O)N1CCCc2cc(C(=O)N3CCc4ccccc4C3)ccc21,i,0.6
Cc1ccc(N(Cc2nc3nc(C)cc(C)n3n2)S(C)(=O)=O)cc1,i,-0.83
COc1ccc(C(=O)N2CCN(CCc3ccccn3)CC2)cc1,i,0.6
CC(C)(C)NC(=O)c1ccc(-c2ccc(F)cc2)nc1,i,-0.59

# Later entries:
SMILES,Anaer choline gr,Anaer choline gr early
Cc1ccc(NS(=O)(=O)c2cc(-c3nc(C)c(C)s3)sc2C)cc1,i,0.84
COc1ccc2cc(C(=O)N3CCC(CC(=O)NCCc4c[nH]c5ccc(Cl)cc45)CC3)[nH]c2c1,i,-1.5
COc1ccc(NC(=O)c2cc3nc(-c4ccc(OC)c(OC)c4)cc(C(F)(F)F)n3n2)cc1OC,i,-0.14
O=C(CN1C(=O)COc2ccccc21)N1CCC(NS(=O)(=O)c2ccc(Cl)cc2)CC1,i,0.47
O=C1CC(c2ccccc2)Cc2[nH]c(=O)c(C(=O)Nc3ccccc3)cc21 (stereo not given),i,0.2
COc1ccc(NC(=O)c2nnc(CCCC(=O)NCc3ccccc3)s2)cc1,i,0.94
Cc1nc2sccn2c(=O)c1NC(=O)C1CC1,i,0.59
Cc1cc(C(=O)N2CCCC2c2cccc(F)c2)on1 (stereo not given),i,0.1
COc1ccc(NC(=O)Nc2ccc3c(c2)N(C(=O)c2ccc(C)cc2)CC3)cc1OC,i,0.61
O=C1CN(Cc2ccccc2)S(=O)(=O)c2ccccc2N1Cc1cccc(F)c1,i,-0.02
O=C(NCc1ccc(F)cc1)NCC(c1ccccc1)c1c[nH]c2ccccc12 (stereo not given),i,0.46
O=C(NCC1CCCO1)c1ccc2ccnc(N3CCN(c4ccc(F)cc4)CC3)c2c1 (stereo not given),i,-1
COc1ccccc1N1CCN(c2ncnc3c2nc2n3CCCC2)CC1,i,1
CCCCN(CC)c1ccc2nnc(CCC(=O)O)n2n1,i,0.16
CC(C)n1cnc(S(=O)(=O)N2CCCC(C(=O)N3CCc4ccccc43)C2)c1 (stereo not given),i,-0.33
CC(C)(C)NC(=O)CN1CCN(c2cc(C(=O)O)c3cc(NC(=O)C4CC4)ccc3n2)CC1,i,-0.21
CCOc1ccc(CN2CCCC2c2cc(C)no2)cc1 (stereo not given),i,-0.44
CCCc1cc(C2CCCN2Cc2cccnc2)no1 (stereo not given),i,0.75
COCC(=O)N1CCC2(CC1)NC(=O)c1ccccc1O2,i,0.09
O=C(NC1CCCC1)C1CCCN(c2ncc(-c3ccccc3)cn2)C1 (stereo not given),i,-0.27
CC1Cc2cc(S(=O)(=O)NCC3CCC(C(=O)N4CCCCC4)CC3)ccc2N1C(=O)C1CC1 (stereo not given),i,-0.5
O=C(NCc1ccc2c(c1)OCO2)c1ccc(-n2nc(OCc3cccc(F)c3)ccc2=O)cc1,i,-2.3
Cc1cc(NC(=O)CN2C(=O)C3CCCCN3c3ccc(C(=O)N(C)C)cc32)no1 (stereo not given),i,0.78
Cc1nc(-c2ccc(C)c(-n3cc(C(=O)NCc4ccc(Cl)cc4)c(C)n3)c2)no1,i,-0.05
CCOc1ccc(-c2cc(C(=O)Oc3ccccc3Br)no2)cc1,i,0.52
Cc1ccc(NCc2cc(=O)n3[nH]c(NCc4ccc(C(C)C)cc4)nc3n2)c(C)c1,i,0.54
COC(=O)c1cnn(-c2cccc(F)c2)c1-n1cccc1,i,0.93
Cn1c(=O)oc2cc(S(=O)(=O)N3CCN(C(=O)c4cc5cc(Cl)ccc5[nH]4)CC3)ccc21,i,-0.12
O=C(Nc1ccc(Cl)cc1)C1CCN(c2ncnc3c2sc2cccc(F)c23)CC1,i,0.84
CC(C)c1cc(-c2nc(-c3ccncc3)no2)n[nH]1,i,0.42
CCc1cc(C2CCCN2C(=O)c2c(Cl)cnn2CC)on1 (stereo not given),i,-0.13
Cc1ccn2c(=O)cc(COc3ccc(NC(=O)Nc4cccc(Cl)c4C)cc3)nc2c1,i,-1.2
COc1ccc(CSc2nc3ccncc3n2Cc2ccc(OC)cc2)cc1,i,1.1
c1ccc2sc(N3CCN(Cc4ccc5c(c4)OCO5)CC3)nc2c1,i,0.38
CCc1c(C)nc2ncnn2c1Nc1ccc2c(c1)OCO2,i,-0.32
COc1ccccc1CNC(=O)C1CCCN(c2ncnc3c2oc2ccccc23)C1 (stereo not given),i,-0.81
CCOc1ccccc1Nc1nc2ccc(C)cc2n2nnnc12,i,1.7
CCOC(=O)CC1COc2cc(F)ccc2N1 (stereo not given),i,-0.69
Cc1ncc(-c2ccc(C)c(S(=O)(=O)Nc3cccnc3)c2)o1,i,-0.23
COc1ccc(-c2nn3c(Nc4ccc(Cl)cc4)cc(C)nc3c2C)cc1OC,i,-1
OC1CO[C@H]2C(O)CO[C@H]12 (stereo not given in full),i,0.4
Cc1cc(-c2nn3c(-c4ccccc4F)nnc3s2)no1,i,-0.89
CNc1nc(C(N)=O)c(NC(=O)CSc2ccccc2)s1,i,0.05
Cc1ccc(-c2noc(-c3cc(N4CCCC4)nc4ccccc34)n2)cc1,i,0.56
Cc1oc(-c2ccc(OC(C)C)cc2)nc1CSc1nc2c(c(=O)[nH]1)CCC2,i,0.71
COc1ccccc1CNC(=O)CN(c1ccc(C)cc1)S(=O)(=O)N(C)C,i,0.64
CCCNC(=O)c1ccc(-c2nccc(Oc3cccc(OC)c3)n2)cc1,i,2
Cc1ccc(Cc2nc(CCNC(=O)Cc3cccc(C)c3)n[nH]2)cc1,i,-0.45
Cc1noc(C)c1S(=O)(=O)N1CCN(c2ccc(F)cc2)CC1,i,1.4
Cc1ccc2oc(-c3nnc(C(=O)NC4CCCCC4)o3)c(C)c2c1,i,0.22
COc1ccc(NC(=O)n2ncc3ccccc32)cc1OC,i,-0.59
CC(C)CNC(=O)CN1c2ccccc2NC2=C(C(=O)CCC2)C1c1cccs1 (stereo not given),i,-0.03
BrC1C(Br)C(Br)C(Br)C(Br)C1Br (stereo not given),i,0.12
Cc1ccc(C)c(NC(=O)CCN2C(=O)c3ccccc3S2(=O)=O)c1,i,1.9
Cc1cc(Sc2ccccc2NC(=O)c2ccc3c(c2)OCO3)n2ncnc2n1,i,1.2
CCCn1c(=O)c2ccccc2n2c(SCC(=O)NCc3ccccc3)nnc12,i,2
Cn1cc(-c2nc(-c3ccc(Br)cc3)no2)c(=O)c2cc(F)c(N3CCOCC3)cc21,i,0.04
C=Cc1ccc(Cn2nc3n(CC(C)C)c(=O)c4ccc(C(=O)NC(C)CC)cc4n3c2=O)cc1 (stereo not given),i,0.29
Cc1ccc(-n2nc3c(N4CCCC(C(=O)NCc5ccccn5)C4)nnc(C)c3c2C)cc1 (stereo not given),i,0.29
Cc1ccc(-c2nc3ncccn3c2NC(=O)Cc2ccccc2)cc1,i,-0.65

# Remaining list, next part.
SMILES,Anaer choline gr,Anaer choline gr early
Cc1ccc(-c2nnc3c4cnn(-c5cccc(C)c5)c4ncn23)cc1,i,0.09
O=C(CC1(CC2=NS(=O)(=O)c3ccccc3N2)CCCC1)NCc1ccc(F)cc1,i,1.6
CCN1C(=O)c2cc(C(=O)N3CCN(C4CCCCC4)CC3)nn2CC1(C)C(=O)NC1CCCC1 (stereo not given),i,-0.88
Cc1cccc(N2CCN(c3ccc4nnc(CCc5nc(-c6ccncc6)no5)n4n3)CC2)c1,i,0.13
CN(C)C(=O)c1cc2c(s1)CCC(C(=O)Nc1ccc3c(c1)OCCO3)C2 (stereo not given),i,0.57
CCCn1cnc2cc(-c3noc(CN4C(=O)COc5ccccc54)n3)ccc21,i,0.37
CCOc1cc(C2c3c(-c4cc(C)ccc4O)n[nH]c3C(=O)N2CCCO)ccc1O (stereo not given),i,0.88
Cc1cc(C2CCCN2Cc2cn(C)nc2C)on1 (stereo not given),i,0.85
COc1ccc(C(=O)N(Cc2nc3nc(C)cc(=O)n3[nH]2)c2ccc(C)cc2)cc1OC,i,-0.33
Cc1ccc(Cn2nc3c(S(=O)(=O)N4CCCCC4)cccn3c2=O)c(C)c1,i,0.98
CCN(CC)CCCCCCCCOC(=O)c1cc(OC)c(OC)c(OC)c1,i,0.71&1.1
Cc1cc(-c2ccc(N=Nc3ccc4c(S(=O)(=O)O)cc(S(=O)(=O)O)c(N)c4c3O)c(C)c2)ccc1N=Nc1ccc2c(S(=O)(=O)O)cc(S(=O)(=O)O)c(N)c2c1O,i,10
C#CCSc1c(COC)cnc2c1c(=O)n(C)c(=O)n2C,i,0.56
CNC(=O)Cc1ccc(-n2c(=O)c3ccccc3n(CC(=O)NCc3ccc(F)cc3)c2=O)cc1,i,0.38
O=C(CCC1CCCN(c2cc(NC3CC3)ncn2)C1)NCCN1CCOCC1 (stereo not given),i,0.94
CCOc1ccc(Nc2nc(C)c(NC(=O)c3ccccc3OC)c(Nc3ccc(OCC)cc3)n2)cc1,i,2.2
Cc1ccc(Nc2nc(C)c3ncn(-c4ccc(C)cc4)c3n2)cc1,i,0.32
COc1cc(OC)c(NC(=O)c2cn(-c3cc(-c4noc(C)n4)ccc3C)nc2C)cc1Cl,i,-0.46
O=C1c2ccccc2Sc2cc(-c3noc(-c4ccncc4)n3)ccc2N1C1CC1,i,0.11

# Only part of the results is shown; the hit share may differ from the screen's.
